# Mtb bLac sens – beta-lactam sensitization of Mtb H37Rv. M. tuberculosis H37Rv growth with meropenem, percent inhibition; hits of this screen are not shown here. inhibition, % at 25 µM. 330,000 compounds, 0.27% hits. AID 434955;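 active = about 74% or more and at least 40 points above the plate without the antibiotic, then above 30% in a dose series; inconclusive = first-round hits that could not be retested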;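 note: growth measured after seven days incubation then overnight dye step; 0% = bacteria only wells and 100% = bacteria with antibiotic; twin plates without the antibiotic show which effects depend on it; some results filed as inactive read as strong as hits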
# YopH inh – YopH (Yersinia) phosphatase inhibition. inhibition, %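 (about 10 µM by stock and volumes)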. 140,000 compounds, 0.16% hits. AID 898. fluorescence Ex485/Em525;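 active = inhibition of 50% or more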;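 note: controls were vehicle for no effect and minimum signal wells for full effect; inactives centre near -20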
# RecA splice inh – inhibitors of M. tuberculosis RecA intein splicing; P9WHJ3; inhibition, %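 (about 9 µM by stock and volumes)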; cell-free RecA intein splicing, fluorescence; 290,000 compounds, 0.75% hits; in the data active = inhibition above about 30%; inconclusive = no clear call, values can overlap the other calls;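 note: 0% = vehicle wells and 100% = reference inhibitor control wells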
# Target sequence (P9WHJ3 whole entry, looked up, canonical isoform): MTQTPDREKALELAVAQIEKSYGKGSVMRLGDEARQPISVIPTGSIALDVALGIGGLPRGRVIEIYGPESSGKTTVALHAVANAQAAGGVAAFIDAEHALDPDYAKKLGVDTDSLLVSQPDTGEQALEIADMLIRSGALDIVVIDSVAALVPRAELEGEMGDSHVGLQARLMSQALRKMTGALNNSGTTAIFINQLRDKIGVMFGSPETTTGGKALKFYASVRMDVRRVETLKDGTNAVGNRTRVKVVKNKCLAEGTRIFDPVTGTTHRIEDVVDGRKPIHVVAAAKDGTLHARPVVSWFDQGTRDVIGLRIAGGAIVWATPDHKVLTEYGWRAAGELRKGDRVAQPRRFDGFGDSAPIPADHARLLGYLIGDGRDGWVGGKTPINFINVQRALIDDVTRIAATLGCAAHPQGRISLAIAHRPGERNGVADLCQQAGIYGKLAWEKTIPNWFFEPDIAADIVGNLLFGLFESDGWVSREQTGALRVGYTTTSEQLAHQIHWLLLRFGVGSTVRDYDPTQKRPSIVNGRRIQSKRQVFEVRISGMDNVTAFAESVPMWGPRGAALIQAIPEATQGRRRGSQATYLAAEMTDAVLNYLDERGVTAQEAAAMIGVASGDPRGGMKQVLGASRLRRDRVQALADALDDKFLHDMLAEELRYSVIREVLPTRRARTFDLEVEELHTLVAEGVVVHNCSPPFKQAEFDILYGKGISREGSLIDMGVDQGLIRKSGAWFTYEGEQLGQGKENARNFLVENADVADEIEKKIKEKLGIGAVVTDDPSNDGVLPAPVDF
# Arbovirus inh – blocks arbovirus infection | inhibition, % at 10 µM | AID 1251 | 200,000 compounds, 0.37% hits | arbovirus infection cell-based antiviral screen;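 active = inhibition from about 30%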;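 note: bluetongue infection of BSR cells; cell survival read as ATP light after 72 h; 0% = infected wells without compound and 100% = uninfected wells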
# Mtb H37Rv – M. tuberculosis H37Rv growth inhibitors, H37Rv strain (AID 1626) | one-dose inhibition, % at 10 µM; IC50 in µM for titrated hits | 220,000 compounds, 0.95% hits | M. tuberculosis H37Rv growth inhibition; higher % means a stronger effect;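 active = confirmed in a dose series; inconclusive = inhibition above 80% but not taken into the dose series; inactive = below 80% or under 30% at every dose of the series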;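 note: bacteria incubated seven days before Alamar blue readout; 0% = bacteria only wells and 100% = bacteria with antibiotic wells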
# Arbovirus inh repeat – recorded beside Arbovirus inh, whose call it bears; inhibition, %; measured here: 10K subset replicate screen; many hits read low in the repeat;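 first of two repeat runs on a subset; 0% = infected and 100% = uninfected wells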
# Active calls of the source: *; ? = inconclusive; nt = no result given. This is a subset; count on the stated rates, not on these rows.
SMILES,Mtb bLac sens,YopH inh,RecA splice inh,Arbovirus inh,Mtb H37Rv,others
O=c1[nH]cnc2c1sc1nc(-c3ccccc3)c3c(c12)CCCC3,-11,-29,0.4,13,0%,
O=c1c(-c2nnc(SCc3ccc(Cl)cc3)o2)cccn1Cc1ccccc1,15,-23,6.5,-6,11%,
CCOC(=O)C(=CNc1ccc(N2CCOCC2)cc1)C(=O)OCC,9,nt,-2.8,nt,5%,
CC(C(=O)N(C)C)N(C#N)c1nc(N(C)C)nc(N(C)C)n1 (stereo not drawn),6,-61,-3.0,-3,-8%,
Cn1cccc1C(=O)N1CCN(S(=O)(=O)c2ccccc2)CC1,-2,nt,-6.4,nt,nt,
Cc1cc(C)c2[nH]c(=O)c(C(c3nnnn3Cc3ccc4c(c3)OCO4)N3CCC(C)CC3)cc2c1 (stereo not drawn),7,-21,3.7,0,13%,
Cc1cc(-c2ccc(Cl)cc2)n2nc(C)cc2n1,-3,nt,1.4,nt,nt,
CCOc1ccc(CCNC(=O)c2sc3nc4n(c(=O)c3c2C)CCC4)cc1,6,nt,-1.4,nt,nt,
Cc1cc(NC(=O)CC(C)C)c(=O)n(Cc2ccccc2F)c1,3,nt,3.0,nt,nt,
COc1ccc(Cl)cc1-n1c(=S)sc2c(=O)[nH]c(SCC(=O)NCC3CCCO3)nc21 (stereo not drawn),-5,-34,nt,2,-1%,
N#Cc1nc(-c2ccc(Cl)cc2)oc1NCCc1ccccn1,-4,-16,1.9,16,4%,Arbovirus inh repeat=3
COc1ccc(OC)c(CNS(=O)(=O)c2cc(CN3C(=O)c4cccnc4C3=O)ccc2OC)c1,-4,nt,0.9,nt,nt,
COc1ccc(-n2c(C)n[nH]c2=O)cc1OC,-9,-49,-9.7,11,-3%,
CCCN1CCC(=O)N(CCO)CC1,-17,nt,-1.7,nt,nt,
COc1ccc(-c2csc(N(CCCN(C)C)C(=O)c3cc(OC)c(OC)c(OC)c3)n2)cc1,2,nt,-2.3,nt,nt,
CCOC(=O)c1sc(N)nc1-c1ccccc1,-2,-25,1.1,-4,1%,Arbovirus inh repeat=1
CCC(C)NS(=O)(=O)c1cc2c3c(c1)CCN3C(=O)CC2 (stereo not drawn),0,nt,3.1,nt,nt,
Cc1cc(C)c(NC(=O)CS(=O)CC(=O)Nc2ccc(F)cc2F)c(C)c1 (stereo not drawn),-9,nt,-0.9,nt,1%,
O=C(CC1CCCCC1)OCn1nnc2ccccc2c1=O,100,-20,1.2,9,?,
CCOC(=O)c1c(NC(=O)CSc2nnc(-c3cccc(C)c3)n2CC)sc(C(C)=O)c1C,1,-20,6.9,4,1%,
O=C(CCC1CCCC1)Nc1cc(C(F)(F)F)ccc1N1CCOCC1,-2,nt,6.4,nt,nt,
Cc1[nH]c2ccccc2c1NC(=O)CN1CCN(Cc2ccc3c(c2)OCO3)CC1,nt,-31,-0.3,-5,3%,
CNC(=O)c1[nH]cnc1C(=O)Nc1ccccn1,-8,nt,1.2,0,-8%,
COc1cc(C(=O)Nc2nnc(CC(C)C)s2)c([N+](=O)[O-])cc1OC,6,nt,1.7,1,-3%,
Cc1ccccc1NC(=O)CCC(=O)N/N=C/c1cccnc1,1,nt,-2.8,nt,nt,

# The final 2 records of the section above are carried over, then new ones follow:
SMILES,Mtb bLac sens,YopH inh,RecA splice inh,Arbovirus inh,Mtb H37Rv,others
COc1cc(C(=O)Nc2nnc(CC(C)C)s2)c([N+](=O)[O-])cc1OC,6,nt,1.7,1,-3%,
Cc1ccccc1NC(=O)CCC(=O)N/N=C/c1cccnc1,1,nt,-2.8,nt,nt,
CC1=C(C(=O)OC(C)C)C(c2cccs2)NC(=O)N1 (stereo not drawn),-4,nt,0.6,2,4%,
CCc1ccc(OC)c(S(=O)(=O)NCCOc2ccccc2)c1,2,-23,1.3,5,-11%,
COc1ccc(C(=O)C2CCCN(C(=O)c3cccs3)C2)cc1F (stereo not drawn),-12,nt,-3.0,5,-6%,
Cc1oc(C(=O)O)cc1COc1cccc2ccccc12,2,nt,1.9,nt,nt,
Nc1nc(-c2ccccc2)c(N=Nc2ccccc2Cl)s1,22,-22,1.7,4,60%,
Cc1ccccc1N1C(=O)C(Cl)=C(N2CCN(c3ccccc3)CC2)C1=O,2,1,15,1,-2%,Arbovirus inh repeat=10
Oc1c(Br)cc(Br)cc1Oc1ccc(Br)cc1Br,-4,-39,39*,-37,9%,
COc1cc(/C=N/NC(=O)CCc2c(C)n[nH]c2C)cc(OC)c1OC,7,4,0.7,-2,-6%,
C=C(C)COc1ccc(-c2nc(N)nc(C(F)(F)F)c2-c2ccc(OC)cc2)c(O)c1,2,nt,5.6,nt,nt,
O=C(NCc1ccc2c(c1)OCO2)c1cc(-c2cc(Cl)ccc2O)n[nH]1,2,nt,0.2,nt,-12%,
O=c1cc(-c2ccccc2)nc2c(-c3ccccc3)c(C(F)(F)F)[nH]n12,-9,nt,-2.5,nt,3%,
O=C(O)c1cccnc1C(=O)N1CCc2c([nH]c3ccccc23)C1C(F)(F)F (stereo not drawn),8,nt,-1.7,nt,-8%,
Nc1ccc(C2(c3ccc(N)cc3)c3ccccc3-c3ccccc32)cc1,-6,-5,nt,8,0%,
O=C(NCc1ccc(N2CCCC2=O)cc1)c1ccc(F)cc1,-11,nt,-0.1,0,4%,
c1ccc(Cc2nc3ccccc3o2)cc1,2,-2,0.8,-4,-2%,
O=C(Cc1n[nH]c(=O)c2ccccc12)OCC(=O)c1ccc(F)cc1,-6,nt,0.1,nt,nt,
O=C(CSc1ccc(-c2ccc(Cl)cc2)nn1)N1CCCc2ccccc21,1,-15,17,-18,6%,
COC(CNC(=O)c1cc(C)nn1-c1ccccc1)OC,-7,-13,-4.1,8,-8%,
C=CCC1C(=O)NC(=S)NC1=O,-11,nt,-2.3,-2,2%,
CCOc1ccc(C(=O)COC(=O)C2CCN(c3ccc(C(F)(F)F)cn3)CC2)cc1,2,nt,0.2,nt,nt,
COc1ccc2cc(C(=O)N3CCOCC3)sc(=O)c2c1OC,4,-25,-7.9,3,6%,
COC(=O)c1[nH]c2cc(OC)ccc2c1NC(=O)CCN1CCN(Cc2ccc3c(c2)OCO3)CC1,nt,-40,0.3,6,-9%,
CCNc1nc(OCCNC(C)=O)nc(N(C)C)n1,1,2,-0.2,10,-8%,
COC(=O)/C=C1/SC(=NC(=O)c2cccc([N+](=O)[O-])c2)NC1=O,6,nt,0.9,nt,nt,
CC(C(=O)NCCCn1ccnc1)(c1ccccc1)c1ccccc1,-14,nt,-0.1,nt,nt,

# Next entries
SMILES,Mtb bLac sens,YopH inh,RecA splice inh,Arbovirus inh,Mtb H37Rv,others
N#C/C(=C\c1ccc(O)cc1)C(=O)NCc1cccc(Cl)c1,4,nt,4.0,nt,nt,
CCO[C@H]1OC(C(=O)NCc2ccccc2)=C[C@@H](c2ccc(Br)cc2)[C@@H]1CCCO,40,nt,9.7,-17,0%,
O=[N+]([O-])c1cc(-c2ccc([As](=O)(O)O)cc2)ccc1[As](=O)(O)O,4,nt,1.7,nt,-8%,
CCOc1cc(C(c2c(C)[nH][nH]c2=O)c2c(C)[nH][nH]c2=O)ccc1OS(=O)(=O)c1ccccc1,2,-5,97*,-13,0%,
CCCCN(C)CCC(=O)Nc1ccc(C)cc1,1,-15,-0.9,5,1%,
Cc1ccccc1NC(=O)Cc1nc(COC(=O)c2cc([N+](=O)[O-])ccc2N)cs1,-8,nt,2.9,nt,nt,
Cc1cccc(NC(=O)c2ccc(NS(=O)(=O)c3c(C)noc3C)cc2)c1,1,-38,0.2,5,-6%,
CC1NC(=O)N(C)C2NC(=O)N(C)C(c3ccccc3)C12 (stereo not drawn),-6,-55,-4.2,0,-14%,
COC(=O)C1=C(c2ccccc2)C[C@@H]2CC[C@H]1N2C(=O)NC1CCCCC1,-8,nt,-0.9,nt,9%,
Cc1nc(-c2ccccc2)sc1C(=O)/C=C/N(C)C,1,nt,7.8,7,-4%,
Cc1nc(OCc2ccccc2)c2ccccc2n1,-10,-53,4.8,6,5%,
Nc1nnc(COc2cccc(C(F)(F)F)c2)s1,2,-29,-0.8,7,6%,
Nc1ccc2c(c1)N=[N+]([O-])c1cc(N)ccc1C2,-4,nt,-0.9,nt,2%,
CC(=O)c1ccc(N2C(=O)NC3(CCCCC3)C2=O)cc1,-12,-32,0.3,9,-4%,
O=[N+]([O-])c1ccc(N/N=C/c2ccc[nH]2)cc1,-3,0,nt,-6,?,
Cc1ccc(S(=O)(=O)N(CC(=O)NCC2CCCO2)C2CCCCC2)cc1 (stereo not drawn),1,nt,0.3,nt,nt,
C/C(=N\NC(=O)C1CC1)c1ccc2c(c1)OCCO2,0,nt,nt,3,-5%,
CC(C(=O)Nc1sccc1C(N)=O)N1C(=O)C2CC=CCC2C1=O (stereo not drawn),-4,-5,12,14,4%,
O=C1c2ccc([N+](=O)[O-])cc2C(=O)N1c1c[nH]c(=O)[nH]c1=O,0,nt,-7.8,-1,-9%,
CCN1CCN(C(=O)c2nn(C)c3c2CS(=O)(=O)c2ccccc2-3)CC1,7,nt,-2.8,nt,nt,
Cc1nn(-c2ccccc2)c(C)c1NC(=O)COC(=O)/C=C/c1ccccc1,-7,nt,-0.9,nt,nt,
S=c1[nH]nc(C2CCCCC2)n1/N=C/c1ccccc1,?,nt,0.4,nt,nt,
CC(C)CN1CCN(Cc2nc3ccccc3s2)CC1CCO (stereo not drawn),0,nt,0.3,-13,7%,
COC(=O)CCC(=O)c1oc2ccc(Cl)cc2c1NC(=O)CCCN1C(=O)c2ccccc2C1=O,1,-51,3.9,4,nt,
COc1ccc(OC)c(S(=O)(=O)Nc2ccc3oc4c(c3c2)C(=O)CCC4)c1,-17,-1,nt,11,-5%,

# 2 entries drawn at random from the list so far:
SMILES,Mtb bLac sens,YopH inh,RecA splice inh,Arbovirus inh,Mtb H37Rv,others
Cc1cc(-c2ccc(Cl)cc2)n2nc(C)cc2n1,-3,nt,1.4,nt,nt,
O=C(CCC1CCCC1)Nc1cc(C(F)(F)F)ccc1N1CCOCC1,-2,nt,6.4,nt,nt,

# (next part)
SMILES,Mtb bLac sens,YopH inh,RecA splice inh,Arbovirus inh,Mtb H37Rv,others
CCOc1ccc(C(C#N)N2CCOCC2)cc1OC (stereo not drawn),-11,-28,2.2,0,-8%,
COc1ccc(Nc2nc3ccccc3nc2-n2nc(C)cc2C)cc1,-6,-6,-28,0,8%,
CCOC(=O)CNC(=O)CSc1ncnc2c1cnn2-c1ccc(Cl)cc1,64,-31,-1.5,0,14%,
COc1ccc(CCNC(=O)c2ccc3c(c2)N(Cc2ccccc2)CCS3)cc1OC,0,nt,-0.4,nt,nt,
Cc1nnc(NC(=O)c2ccc(C)c(S(=O)(=O)N3CCCCCC3)c2)s1,-5,-2,0.3,5,-1%,
CCCn1c(CCC(=O)O)nc2cc(S(=O)(=O)N(CC)CC)ccc21,-4,nt,-5.7,nt,3%,
COc1ccc(C(C)=O)cc1CSc1ncccn1,-3,nt,0.7,0,6%,
C#CC(CC)(CC)NC(=O)c1nn(-c2ccccc2Cl)c(C)cc1=O,-9,nt,0.3,nt,nt,
O=C(COc1ccc([N+](=O)[O-])cc1)Nc1ccc(C(=O)Nc2ccccc2C(=O)O)cc1,4,nt,-4.2,28,8%,
Cn1nc(-c2ccc(Cl)cc2)c2cc(C(=O)N3CCCC3)sc21,1,-35,nt,-3,1%,Arbovirus inh repeat=-5
O=S(=O)(NC1CCCCC1)c1cccc2nsnc12,-8,nt,2.5,nt,nt,
Cc1ccc2nc(-c3ccc(NC(=O)CSc4ccccc4)cc3)[nH]c2c1,16,-43,0.6,-13,15%,
COCCN(C(=O)/C=C/c1ccccc1)c1nnc(-c2cccnc2)s1,0,nt,0.8,-12,-7%,
Cc1ccc(N=Cc2nc(-c3ccco3)oc2O)cc1,86,-35,9.3,0,48%,
CN(CCC1CCOCC1)C(=O)c1cc(COc2c(F)cccc2F)on1,5,nt,-0.9,nt,nt,
CCOC(=O)Cn1c(=NC(=O)CSC(C)=O)sc2cc(F)ccc21,9,-31,3.8,1,10%,

# Among those listed so far, 2 have bromine:
SMILES,Mtb bLac sens,YopH inh,RecA splice inh,Arbovirus inh,Mtb H37Rv,others
Oc1c(Br)cc(Br)cc1Oc1ccc(Br)cc1Br,-4,-39,39*,-37,9%,
CCO[C@H]1OC(C(=O)NCc2ccccc2)=C[C@@H](c2ccc(Br)cc2)[C@@H]1CCCO,40,nt,9.7,-17,0%,

# 3 successive entries out of the list so far:
SMILES,Mtb bLac sens,YopH inh,RecA splice inh,Arbovirus inh,Mtb H37Rv,others
CCOc1ccc(C(=O)COC(=O)C2CCN(c3ccc(C(F)(F)F)cn3)CC2)cc1,2,nt,0.2,nt,nt,
COc1ccc2cc(C(=O)N3CCOCC3)sc(=O)c2c1OC,4,-25,-7.9,3,6%,
COC(=O)c1[nH]c2cc(OC)ccc2c1NC(=O)CCN1CCN(Cc2ccc3c(c2)OCO3)CC1,nt,-40,0.3,6,-9%,

# Source: PubChem (several laboratories)
